MT1-MMP act inh – blockers of MT1-MMP proenzyme processing, primary screen, HT1080 RFP-PRO-GFP cells, GFP/RFP fluorescence; AID 651647, 2012; GFP/RFP ratio fluorescence, overnight; percent of plate control window, DMSO zero; GFP/RFP ratio change, % at 20 µM; Matrix metalloproteinase-14 (Homo sapiens), P50281; 360,000 tested, 0.061% active;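 active = GFP/RFP ratio change of at least 30% with cell ATP level not reduced by more than half and red fluorescence within 50% of control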; also: strong numbers were not always called active
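Material: RFP-PRO-GFP reporter HT1080 cells. Dosing: single-point 20 µM compound, 1% DMSO. Controls: DMSO and RFP-L50D-GFP cell wells. Timing: cells overnight before dosing, compound overnight, 37 °C, 5% CO2. Measure: GFP/RFP fluorescence ratio.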
UUG fidelity – modulators of yeast start codon fidelity, primary screen, whole organism, S. cerevisiae, single point, plate reader; S. cerevisiae UUG-firefly luciferase reporter, luminescence/redox ratio; activity score, % at 18.7 µM; 350,000 tested, 0.13% active;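 active = replicate mean at a twofold rise or more, about +100% in these data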;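 also: firefly luciferase made from a UUG start codon reports start codon fidelity; reporter light over untreated wells divided by growth signal over untreated wells; some hits fall short of that in this replicate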
Rce1 inh – yeast Rce1p protease inhibitors, primary screen, biochemical, fluorescence, cell-free homogeneous | CAAX prenyl protease 2 (Saccharomyces cerevisiae (strain ATCC 204508 / S288c)), Q03530 | yeast membranes, quenched prenylated peptide cleavage fluorescence | calls only | 290,000 tested, 0.27% active | AID 2563, 2010;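 active = fall in fluorescence gain of 50% or more versus controls, with final raw signal at or below 3038400; inconclusive = same 50% fall but final raw signal above 3038400; inactive = fall in fluorescence gain under 50%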;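 also: plate controls were neutral control wells for no effect and wells lacking membranes for full effect; tested at 10 µM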
Target sequence (Q03530 whole entry, looked up): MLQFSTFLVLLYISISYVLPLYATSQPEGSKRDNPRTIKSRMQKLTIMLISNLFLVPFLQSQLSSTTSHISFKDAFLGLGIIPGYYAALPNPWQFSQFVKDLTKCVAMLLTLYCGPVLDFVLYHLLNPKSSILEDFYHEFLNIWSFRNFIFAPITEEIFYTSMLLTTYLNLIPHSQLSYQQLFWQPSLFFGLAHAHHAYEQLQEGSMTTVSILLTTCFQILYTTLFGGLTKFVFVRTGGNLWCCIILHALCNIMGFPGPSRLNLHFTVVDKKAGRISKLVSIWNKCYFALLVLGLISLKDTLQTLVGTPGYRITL
eIF4H FP inh – human eIF4H binding inhibitors, primary screen, translation initiation inhibitor project, biochemical, uHTS, fluorescence polarization | 290,000 tested, 0.94% active | AID 2012, 2009 | eIF4H fluorescence polarization binding assay | inhibition, % at 35 µM;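 active = 50% or more with normal probe brightness, or confirmed in later tests; inconclusive = above 50% with abnormal brightness, or retests that disagree; inactive = below 50% or failed in later tests; about a fifth of its hits are not listed in these tables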;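 also: calls also rest on retests at 20 µM and on dose response follow-up; 0% = protein and probe with vehicle and 100% = probe without protein; strong numbers were not always called active; many hits fall short of the cut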
PABP polyA inh – PABP poly(A) RNA binding inhibitors, primary screen, biochemical, fluorescence polarization, uHTS; Polyadenylate-binding protein 1 (Homo sapiens), P11940; inhibition, % at 35 µM; 290,000 tested, 1% active; AID 2014, 2009;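 active = 50% or more with normal probe brightness, or confirmed in later tests; inconclusive = above 50% with abnormal brightness, or retests that disagree; inactive = below 50% or failed in later tests; about a fifth of its hits are not listed in these tables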;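 also: calls also rest on retests at 20 µM and on dose response follow-up; controls were probe without protein and protein plus probe with vehicle; some compounds called inactive have numbers as strong as hits; many hits fall short of the cut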
HIV Env fusion – inhibitors of HIV-1 Env-driven cell-cell fusion, primary screen, HeLa-JRFL effector, CEM21 target cells, luciferase; inhibition, % at 12.3 µM; 360,000 tested, 1.1% active; AID 651610, 2012;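 active = mean replicate inhibition score of at least 50 and every replicate individually at or above 50; inconclusive = only one of the two criteria met; inactive = mean below 50 and not all replicates reaching 50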;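 also: 0% = plate neutral controls and 100% = maraviroc near 300 nM; one replicate is shown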
CSC inhib – cancer stem cell viability inhibitors, primary screen, luminescence; 300,000 tested, 1.1% active; inhibition, % at 7.5 µM; cancer stem cell-like cells viability; AID 2717, 2010;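 active = mean at 75% or more and at least half the replicates too; inconclusive = mean and replicates disagree; tested in HMLE shEcad cells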;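 also: 0% = median of negative and 100% = median of positive control wells; the first replicate is given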
MT1-MMP act inh RFP – recorded beside MT1-MMP act inh, whose call it bears; RFP signal change, %; measured here: RFP expression control read;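 0 = vehicle wells; hits needed this value within 50% of zero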
Starred values were filed as active, the others as inactive; i = inactive; ? = inconclusive; . = not tested or not shown.

The line under a structure holds: MT1-MMP act inh	MT1-MMP act inh RFP	UUG fidelity	Rce1 inh	eIF4H FP inh	PABP polyA inh	HIV Env fusion	CSC inhib
> CCCN(CC(=O)Nc1ccc(C(N)=O)cc1)CC(=O)Nc1ccc(Cl)cc1Cl
 : -1	-5	.	i	1	2	2	2
> Cc1nc(-c2nnc(-c3ccccc3)o2)c(C(F)(F)F)o1
 : 3	1	-1	i	2	4	-70	2
> O/N=C/c1cc(Br)ccc1OCc1cccc(F)c1
 : -9	-14	-7	i	-7	0	-13	27
> COc1cc(/C=C2/SC(=S)N(CCC(=O)N3CCN(C)CC3)C2=O)cc(OC)c1OC
 : 10	3	-14	.	.	.	22	.
> O=C(O)C12CC3CC(C1)CC(n1ncc(NCc4ccco4)c(Cl)c1=O)(C3)C2
 : -2	-1	.	i	12	2	3	-11
> Cc1c(CN(C)C(=O)c2sc3cc(Cl)ccc3c2Cl)cnn1C
 : -3	-19	-2	i	-8	4	.	6
> CCN(C)c1ccc(/C=N\n2nnnc2N)cc1
 : 6	-6	-13	i	-1	-8	-406	-3
> C/C(=N\n1c(C)nc2ccccc2c1=O)c1ccc(N)cc1
 : 5	3	-11	i	.	.	17	-14
> Cc1ccsc1-c1nc(CN2CCCC2c2ccc(F)cc2)c(C)o1 (stereo unspecified)
 : -1	3	.	i	20	-13	10	-6
> O=C(O)CCn1cc(-c2ccc(F)cc2)nc1-c1ccncc1
 : 4	5	-18	.	.	.	-32	1
> NC(=O)N[C@@H](Cc1c[nH]c2ccccc12)C(=O)OCC(=O)N1CCCCC1
 : 17	-1	.	i	-10	7	-10	-8
> Nc1nc2ccc(S(=O)(=O)c3ccc4nc(N)sc4c3)cc2s1
 : 0	-4	-8	i	-4	9	.	-1
> CC1CC(C)(C)NC(=S)N1CCC(=O)N1CCc2ccccc2C1 (stereo unspecified)
 : -2	0	.	.	-12	?	-7	-12
> COc1ccc(S(=O)(=O)N(CC(=O)Nc2cc(C)on2)Cc2ccccc2)cc1
 : -3	-7	2	i	-7	-11	-85	0
> COC(=O)c1cccc(C(=O)Nc2ccc(F)cc2)n1
 : 1	1	44	i	1	-2	-28	.
> COc1cccc(CNC(=O)c2cc3c(cc2Cl)N2CCCCCC2=NS3(=O)=O)c1
 : 2	1	.	i	.	.	-3	-6
> O=[N+]([O-])c1ccc(CN2CCCCCC2)s1
 : -2	4	-18	i	2	-15	6	-22
> CCSc1ncnc2sc3c(c12)CCC3
 : -4	-2	-5	i	-10	-3	-78	.
> CSCC[C@H](NC(=O)Nc1cccc(Br)c1)C(=O)O
 : 2	6	-25	i	2	-6	-9	2
> CC(C)N(CCC#N)C(=O)Nc1ccc2c(c1)CCO2
 : -3	-2	.	i	-10	-9	-8	-3
> Cc1ccccc1CN1CCNC(=O)C1CC(=O)O (stereo unspecified)
 : -1	2	2	i	2	7	-15	-7
> COc1ccc(/C=N/NC(=O)CNC(=O)c2ccc3c(c2)OCCO3)cc1OC
 : 0	2	.	i	-5	0	16	-11
> CCS(=O)(=O)c1nc(S(=O)(=O)c2ccc(C)cc2)c(NCCCn2ccnc2)s1
 : 2	5	-22	i	-8	2	2	-11
> CCOC(=O)C1=CCN(S(=O)(=O)c2ccc(C)cc2)C1c1ccc(Cl)cc1 (stereo unspecified)
 : 6	2	-6	.	.	.	10	.
> CN(Cc1ccccc1)C(=O)CCC(=O)N(C)Cc1ccccc1
 : 2	-1	-13	i	-4	4	.	0
> COc1ccc(Cl)cc1C(=O)NNC(=S)NC(=O)c1ccc(F)c(F)c1
 : -9	-13	0	i	13	8	.	.
> CC1(C)CC(=O)C2=C(C1)OC1=C(C(=O)CC(C)(C)C1)C2c1ccccc1
 : -5	-3	-4	i	2	3	.	-2
> COC(=O)c1ccc2c(CCO)c[nH]c2c1
 : 1	5	-20	?	-4	-9	-14	-7
> c1ccc(-c2nnc(-c3ccccn3)s2)nc1
 : -1	-4	-66	i	-6	6	4	7
> CC(C)CN(C(=O)C(c1ccccc1)c1ccccc1)c1c(N)n(CC(C)C)c(=O)[nH]c1=O
 : -1	4	-5	i	-1	8	79*	0
> COc1ccccc1CN(C(=O)Cc1cccs1)C(C(=O)NC1CCCC1)c1ccncc1 (stereo unspecified)
 : -4	-1	-5	i	-6	1	.	34
> COc1ccc(/C=C/C(=O)Nc2ccc(C)cc2)cc1S(=O)(=O)N1CCOCC1
 : -6	-24	-10	i	-8	5	16	-2
> Cc1cccc(N2C(=O)C3C(c4ccccc4)OC4(C(=O)c5ccccc5C4=O)C3C2=O)c1 (stereo unspecified)
 : -2	2	-6	i	7	10	-35	-6
> CC(C)Nc1ncnc2c1ncn2[C@H]1CN(Cc2ccc(-c3ccccc3)cc2)C[C@@H](CO)O1
 : -2	-21	11	.	.	.	27	.
> CCOC(=O)N1CCN(C(=O)c2ccc3c(c2)N=C(CC)c2cc(C)ccc2S3)CC1
 : 1	-7	-17	i	-14	4	-13	3
> Cc1ccc(C)c(N(CC(=O)NCc2ccco2)C(=O)CNS(=O)(=O)c2ccc(F)cc2)c1
 : 2	3	-1	i	1	2	-8	6
> O=c1ccc(-c2nc3ccccc3n2Cc2ccc(Cl)cc2)c[nH]1
 : 9	-5	-11	i	1	0	16	-9
> COc1cc(OC)c(C2=NOC(C(=O)Nc3ccc4c(c3)OCO4)C2)cc1Cl (stereo unspecified)
 : 6	3	.	i	7	-2	-26	15
> COC(=O)C1[C@H]2SC(C)(C)C(C(=O)OC)N2C(=O)N1Cc1nc2ccccc2s1 (stereo partly specified)
 : -1	-3	-10	i	-4	-3	-7	-22
> COc1ccccc1/C=C\C=N\NC(=O)c1ccco1
 : 5	4	11	i	5	4	10	12
> CCN(CC)C(=O)c1cccc(NC(=O)c2cc(C3CC3)nc3c2cnn3C(C)C)c1
 : 3	-6	8	.	.	.	0	-22
> Cn1cc(C(=O)NS(=O)(=O)Nc2ccc(Br)cn2)c2ccccc21
 : 4	3	.	i	-2	6	-13	-4
> CCCCN(C(=O)CSCC(=O)Nc1cccc(C)c1)c1c(N)n(Cc2ccccc2)c(=O)[nH]c1=O
 : 3	-2	5	i	.	.	.	4
> CC(CC(=O)NCc1cccnc1)c1ccccc1 (stereo unspecified)
 : 4	6	0	i	4	4	.	0
> COC(=O)C1(CCSC)NC(c2ccc(O)cc2)C2C(=O)N(c3ccc(F)cc3)C(=O)C21 (stereo unspecified)
 : 1	4	-19	i	-6	7	1	12
> NC(=O)C1=C(c2ccccc2)c2ccccc2C1=O
 : -1	2	-17	.	.	.	-82	.
> FC(F)Sc1ccc(NC(=S)NC2CCC(NC(=S)Nc3ccc(SC(F)F)cc3)CC2)cc1 (stereo unspecified)
 : 4	3	-13	i	-1	2	-12	25
> O=C(NC(=S)Nc1ccc(CN2CCOCC2)cc1)c1ccc([N+](=O)[O-])cc1
 : -2	-6	-5	i	-5	-1	20	4
> O=C(O)CSc1cccnc1Sc1ccc(Cl)cc1
 : -1	3	-12	i	.	.	-10	-12
> COC(=O)/C(C#N)=C1/C=Cc2ccccc2N1C
 : -3	-12	.	i	3	3	-138	3

Next structures:
The line under a structure holds: MT1-MMP act inh	MT1-MMP act inh RFP	UUG fidelity	Rce1 inh	eIF4H FP inh	PABP polyA inh	HIV Env fusion	CSC inhib
> COc1ccccc1CNC(=O)c1csc2c1CCCC2
 : 1	5	.	i	-1	-2	14	-6
> N=c1c2ccccc2nc2n1CCCCC2
 : -4	4	-4	.	.	.	-20	.
> O=C(NCCc1ccccc1)c1ccc(CS(=O)Cc2ccc(Cl)cc2)o1 (stereo unspecified)
 : 5	2	1	i	3	5	-37	0
> CC(=O)c1ccc(S(=O)(=O)N(C)CCCC(=O)N(C)Cc2ccccc2F)cc1
 : 0	0	-20	i	-2	0	-3	-19
> O=C(CSc1ccc(-c2ccco2)nn1)Nc1ccccc1F
 : 1	0	-12	i	-12	-4	18	-1
> CCCCn1c(=NC(=O)c2ccco2)c(C(=O)OCC)cc2c(=O)n3ccccc3nc21
 : 6	2	-8	i	6	-6	-13	-4
> COC(=O)c1sccc1NC(=S)N1CCN(c2ccccc2)CC1
 : -6	2	-30	i	-4	7	.	2
> COc1ccc(OCC(=O)N2N=C(C)CC2(O)C(F)(F)F)cc1 (stereo unspecified)
 : 0	0	.	i	1	-9	-7	15
> Cc1cccc(-n2ncc3c(NCCN4CCOCC4)ncnc32)c1
 : -2	5	-6	i	-13	14	.	-1
> COc1cc(/C=N/NC(=O)Cc2nnc(NC(=O)c3ccccc3)s2)ccc1O
 : -1	5	-8	i	-6	-2	0	11
> CN(O)/C=c1/ccc2c(n1)C(=O)C=CC=2
 : 4	6	-24	i	14	0	.	26
> O=C(CSc1nnc(NC(=O)c2c(F)cccc2F)s1)NC1CCCC1
 : 1	4	-4	i	-17	-8	-4	3
> S=C(Nc1ccccc1Cl)N(Cc1ccccc1)Cc1cccnc1
 : -7	-6	.	i	7	0	1	9
> O=C(CSc1cc([N+](=O)[O-])cc(S(=O)(=O)Cc2ccccc2)c1)NC1CC1
 : -1	-2	.	i	0	-6	16	-15
> C/C(=N/NS(=O)(=O)c1ccc(Br)cc1)c1ccc(C)o1
 : 1	3	.	i	-1	2	-4	-26
> Cc1cccc(-n2c(SCC(=O)N3CCCC3)nc3n[nH]c(C)c3c2=N)c1
 : 14	-4	-1	i	0	1	-9	-13
> Cc1noc2ncnc(Oc3ccccc3Cl)c12
 : -9	-6	.	i	-11	1	-10	7
> CC(C)(C)C(=O)Nc1ccccc1C(=O)NCc1cccnc1
 : 5	-1	-14	i	-1	-2	-7	-14
> Cc1ccc(OCC(=O)O/N=C(\N)c2cccnc2)cc1
 : 3	-2	.	i	1	5	-20	.
> CCc1noc(C)c1C(=O)N1CCCSC1=Nc1ccccc1Cl
 : 6	0	-6	i	.	.	16	-8
> O=C(CSc1nc2ccccc2o1)N1CCN(c2ccc(Cl)cc2)CC1
 : 2	3	.	i	0	1	-43	-10
> CCCN1C=CC(=C2C(=O)c3ccccc3C2=O)C=C1
 : 9	1	-92	i	-9	17	107*	55
> COC(=O)c1ccc(CN(c2ccc(C)cc2)S(=O)(=O)c2ccc3c(c2)OCCO3)o1
 : 0	-4	-1	i	-3	-5	.	-1
> O=C(NCCNS(=O)(=O)c1ccccc1)N1CCOCC1
 : 5	5	-1	i	7	12	-20	-19
> COc1ccc(S(=O)(=O)N2CCC(C(=O)O)(c3ccccc3)CC2)cc1
 : -1	3	-10	i	-9	-12	2	-12
> C#CCOc1ccc(/C=C2/C(=O)NN(c3ccc(F)cc3)C2=O)cc1OC
 : 3	4	-13	i	-5	3	2	-6
> COCCCNC(=O)c1ccc(CS(=O)(=O)c2ccccc2OC)o1
 : 1	3	-5	i	-6	1	5	-5
> CC1(OC(=O)C2CCCC2)C(=O)C=C2C=C(c3ccsc3)N(C3CCCC3)C=C2C1=O (stereo unspecified)
 : -18	-26	-24	i	48	44	-9	6
> COc1ccc(NC(=O)CSc2nnc(CNC(=O)COc3ccc(Cl)cc3)o2)cc1
 : -1	1	.	i	-2	-10	8	-10
> CCC(C(=O)Nc1nnc(-c2ccco2)s1)c1ccccc1 (stereo unspecified)
 : 3	-2	-11	i	19	-1	.	-1
> COc1ccc2c(c1)CC/C2=N\OC(=O)c1ccccc1OC
 : -4	5	-14	i	-2	12	-17	-10

Compound activity deposited in PubChem by several laboratories.
